From PubChem BioAssay
Mtb H37Rv = Confirmatory growth inhibition assay against Mycobacterium tuberculosis H37Rv, potency (AID 1949); inhibition, % at 10 µg/mL, or IC50 in µg/mL where a hit was titrated; most inactive calls were filed without a number and no value below 0 was filed; hit rate 1.6% among 100,000;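 active = confirmed in a dose series; inconclusive = about 50% or more but not retested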;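 also: bacteria grown 7 days with compound before Alamar blue readout; 0% = untreated bacteria and 100% = reference antibiotic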
Starred values were filed as active, the others as inactive; i = inactive; u = inconclusive. This is a subset. The share of hits here may be higher or lower than overall.

canonical_smiles	Mtb H37Rv
CCOC(=O)C1CCN(C(=O)COc2ccc([N+](=O)[O-])cc2)CC1	i
OCCNCCOCCOc1ccccc1F	i
Cc1ccc(OCCCCN2CCNCC2)cc1C	i
Cc1ccc(S(=O)(=O)c2nc(-c3ccccc3)oc2SCC(=O)c2ccc(Cl)cc2)cc1	i
COCCCNC(=O)c1c(NC(=O)C(C(C)C)N2C(=O)c3ccccc3C2=O)sc2c1CCCC2 (stereo not drawn)	i
Cc1ccc(C(=O)Nc2ccc(S(=O)(=O)N(C)C)cc2)cc1I	1%
Cc1ccccc1OCC(=O)N=Nc1c(O)[nH]c2c(Br)cc(Br)cc12	u
Cc1onc(-c2ccccc2)c1C(=O)N(CCC#N)CCC#N	i
O=C(CN1CCCC1)Nc1ccc(S(=O)(=O)N2CCOCC2)cc1	i
O=C(NC(=S)Nc1ccc(Cc2ccncc2)cc1)c1cc(I)ccc1Cl	i
CCc1nnc(NC(=O)CSc2nc(C34CC5CC(CC(C5)C3)C4)ccc2C#N)s1	0%
Cc1ccc(OCC(=O)Nc2c[nH]c(=O)[nH]c2=O)cc1C	i
CCCOc1c(Br)cc(C2NC(=O)NC(C)=C2C(=O)OCC)cc1OC (stereo not drawn)	3%
Cc1cc(C(C)(C)C)cc(C)c1CSc1nnc(NC(=O)c2ccc([N+](=O)[O-])cc2)s1	i
CCOC(=O)N1CCN(CC(O)COc2ccc(C34CC5CC(CC(C5)C3)C4)cc2)CC1 (stereo not drawn)	u
CC(C)Oc1ccc(C2CC(=O)NNC2=O)cc1 (stereo not drawn)	i
Cn1c(SCc2ccccc2F)nc2ccccc2c1=O	i
CCc1c(C(=O)N2CCOCC2)csc1C	7%
COc1ccc(Nc2nc3ccccc3n2C)cc1	4%
CN(CC(=O)Nc1cc(Cl)c(Cl)cc1Cl)S(=O)(=O)c1ccc(Cl)cc1	i

Continued (2 carried over from the part before).
canonical_smiles	Mtb H37Rv
COc1ccc(Nc2nc3ccccc3n2C)cc1	4%
CN(CC(=O)Nc1cc(Cl)c(Cl)cc1Cl)S(=O)(=O)c1ccc(Cl)cc1	i
COc1ccc(CNC(=O)CN(CCc2ccccc2)S(=O)(=O)c2ccc(Cl)cc2)cc1	i
CC1(C)Cc2c(sc3ncnc(NCCc4ccccc4)c23)CO1	i
CCn1c(SCC(=O)Nc2ccc(Cl)cc2C)nnc1-c1cc(OC)cc(OC)c1	i
O=C(Nc1ccc2c(c1)OCCO2)C1c2ccccc2Oc2ccccc21	i
O=S(=O)(c1c(Cl)cccc1Cl)N1CCC(Cc2ccccc2)CC1	i
CCc1nc2c(sc3nc4c(cc32)COC(C)(C)C4)c(=O)n1CCN(CC)CC	i
O=C(Nc1ccc(Cl)cc1C(=O)NCCc1ccccc1)c1ccco1	5%
CS(=O)(=O)N(CC(=O)N1CCN(c2ccccc2)CC1)c1ccc(I)cc1	i
O=c1[nH]c(SCc2ccccc2Cl)nc2ccccc12	i
CCOC(=O)Nc1ccc(-c2ccc(NC(=O)OCC)c(OC)c2)cc1OC	i
Cc1cc(C(=O)Nc2sc3c(c2C(=O)NC2CCCCC2)CCCC3)no1	i
O=[N+]([O-])c1c(Nc2cc(Cl)ccc2Cl)cc(N2CCOCC2)c2nonc12	i
O=C1CC(C(=O)Nc2cccc([N+](=O)[O-])c2)C2(CCCCC2)O1 (stereo not drawn)	i
CC1=C(Cl)c2ccc(Cl)cc2S1(=O)=O	i
CCCCOc1cccc(-c2nnc(NC(=O)COc3ccccc3)s2)c1	i
CC1CCN(C(=O)COc2ccc3c4c(c(=O)oc3c2)CCCCC4)CC1	7%
NC(=O)C1CCN(C(=O)NC2CCCCC2)CC1	i
Brc1ccc(-c2nc3ccccc3n2Cc2ccccc2)o1	19%
O=C(CCc1ccccc1)Nc1ccc(S(=O)(=O)N2CCCCCC2)cc1	14%
Cc1ccc(-c2csc(NC(=O)c3ccccc3)c2C(=O)NC2CC2)cc1	i
Cc1cc(Cl)ccc1NC(=O)CCc1ccc(S(=O)(=O)NCC(C)C)cc1	0.53µg/mL*
CC(C)C(=O)Nc1ccc(C(=O)Nc2ccc3c(c2)OCO3)cc1	i
O=C(NCc1ccc2c(c1)OCO2)c1nn2cccnc2c1Cl	i
NC1=NS(=O)(=O)NC1c1cccc(F)c1 (stereo not drawn)	i
CN(c1ccc(C(=O)NCCC2=CCCCC2)cc1)S(C)(=O)=O	i
CS(=O)(=O)N(Cc1ccccc1)c1ccc(C(=O)Nc2ccc3c(c2)OCO3)cc1	i
COCCCNC(=O)c1ccc2c(c1)CCN2S(C)(=O)=O	2%
Cc1cccc(N2CCN(C(=O)C3CCCO3)CC2)c1C (stereo not drawn)	i
Cc1cccc(Nc2nc(-c3cccnc3)cs2)n1	i
Cc1cccc(NC(=O)c2ccccc2NC(=O)COc2ccccc2)c1C	i
CCOc1ccc(CC(=O)NNC(=S)Nc2ccc(OC)c(OC)c2)cc1	i
CCOC(=O)C1=C(C)NC2=C(C(=O)CCC2)C1c1cc(Br)c(CC)s1 (stereo not drawn)	i
CN1CCC(NC(=O)Nc2ccc(F)c(Cl)c2)CC1	i
COc1ccc(CCNC(=O)c2noc(C)c2-c2ccccc2Cl)cc1OC	i
Cc1ccc(NC(=O)c2ccc(C(C)(C)C)cc2)c(C)c1	u
CC(=O)n1cc(C2C(=O)CC(C)(C)CC2=O)c2ccccc21	i
CC1CCN(C(=O)CN(Cc2ccc(Cl)cc2Cl)S(=O)(=O)c2ccccc2)CC1	i
COC(=O)Cc1ccc(NC(=S)N2CCc3ccccc3C2)cc1	i
COc1ccc(N2CC(C(=O)Nc3ccc(F)cc3F)CC2=O)cc1 (stereo not drawn)	i
O=c1c2c(-c3cccc([N+](=O)[O-])c3)csc2ncn1Cc1ccccc1Cl	i
Oc1ccccc1N1CCN(C(=S)NCCc2ccccc2)CC1	i
CCn1c(SCc2ccccc2F)nnc1-c1ccccc1	i
CCc1cc(C(=O)O)c(NC(=O)c2ccccc2)s1	2%
Cc1ccc([N+](=O)[O-])cc1S(=O)(=O)NCCOc1ccccc1	i
Cc1ccc(OCCCCn2cnc3ccccc3c2=O)c(Br)c1	i
O=C(Cc1ccc(Cl)cc1)Nc1ccc(C(=O)N2CCCCC2)cc1	i
CCn1c(NCc2cccc(Br)c2)nc2ccccc21	u
CCc1ccc(S(=O)(=O)Nc2cccc3c([N+](=O)[O-])cccc23)cc1	i
CCN(CC)S(=O)(=O)c1cccc(C(=O)Nc2cccnc2)c1	i
N/C(=N\OC(=O)c1cc(-c2ccccc2)nc2ccccc12)c1cccnc1	i
COc1cc2c(cc1OC)C(c1ccc(-c3cc(Cl)ccc3Cl)o1)=NCC2	i
Clc1ccc(C2=CC(c3ccc(Cl)cc3)n3nnnc3N2)cc1 (stereo not drawn)	2.1µg/mL*
Cc1[nH]c(=O)[nH]c(=O)c1NC(=O)C(C)(C)C	i
Cc1ccc(OCC(=O)Nc2ccc3oc(-c4cccc(F)c4)nc3c2)c(C)c1	i
COC(=O)c1ccc(NS(=O)(=O)c2ccc(OC)c(C)c2)cc1	2%
CCN(CC)C(=O)c1sc(NC(=O)c2ccc(Br)o2)c(C(=O)OC)c1C	i
O=C(CN(Cc1ccc(Cl)cc1Cl)S(=O)(=O)c1ccccc1)NC1CCCCC1	i
COc1cc(/C=C/[N+](=O)[O-])ccc1OC(=O)c1cccnc1	29%
CC(=O)Nc1nnc(SCCOc2ccccc2)s1	i
CCOC(=O)c1cc(C)sc1N1C(=O)C2C3C=CC(C3)C2C1=O (stereo not drawn)	i

In the list so far, these contain two or more sulfur atoms:
canonical_smiles	Mtb H37Rv
Cc1ccc(S(=O)(=O)c2nc(-c3ccccc3)oc2SCC(=O)c2ccc(Cl)cc2)cc1	i
CCc1nnc(NC(=O)CSc2nc(C34CC5CC(CC(C5)C3)C4)ccc2C#N)s1	0%
Cc1cc(C(C)(C)C)cc(C)c1CSc1nnc(NC(=O)c2ccc([N+](=O)[O-])cc2)s1	i
CC(=O)Nc1nnc(SCCOc2ccccc2)s1	i

Next section:
canonical_smiles	Mtb H37Rv
Cc1cc(Cl)ccc1OCCNC(C)(C)C	i
COc1ccc(NC(=S)NCCCO)c(OC)c1	i
O=C(Cc1ccccc1)NCCSC1CCCCC1	i
O=C(Nc1ccc(Oc2cccnc2)cc1)c1ccccc1Cl	i
Cc1c(Cl)ccc(NC(=O)c2ccccc2C(F)(F)F)c1Cl	i
Cc1cc(OCc2cccc(F)c2)c2c3c(c(=O)oc2c1)CCCC3	i
CCCn1c(Nc2ccccc2)nc2ccccc21	3%
COc1ccccc1C(=O)Nc1ccc(Br)cc1C(=O)O	i
COc1ccc(OC)c(NC(=O)NC(=O)C(F)(F)F)c1	1%
O=C(CCCOc1ccc(Cl)cc1Cl)Nc1ccc2c(c1)C(=O)NC2=O	i
COC(=O)c1ccccc1NC(=O)NNC(=O)C(Sc1ccccc1)c1ccccc1 (stereo not drawn)	i
O=[N+]([O-])c1ccc(-c2noc(-c3cc(Br)ccc3Cl)n2)cc1	i
CC(NC(=S)NCc1ccccc1)C12CC3CC(CC(C3)C1)C2 (stereo not drawn)	i
Cc1ccc([N+](=O)[O-])cc1S(=O)(=O)Nc1ccc2oc(C)c(C(=O)OC(C)C)c2c1	i
CCN1C(=O)C(CC(=O)Nc2ccc(F)cc2)N(CCc2ccc(F)cc2)C1=S (stereo not drawn)	i
CC(=O)C1=C(C)NC(=O)NC1c1ccccc1F (stereo not drawn)	i
O=C(O)CCN1C(=O)C2CC=C(Cl)CC2C1=O (stereo not drawn)	i
CN(C)c1nc(SCC#N)nc(N(C)C)n1	i
Cc1cc(C)c(C)c(OCC(=O)NCCCN(C)C)c1	i
CCOC(=O)c1c(NC(=O)CSc2ccc(C)cc2)sc(C(C)=O)c1C	i
COc1ccc(C(=O)Nc2ccccc2C(=O)Nc2ccccc2F)cc1	i
COc1cc(OC)c(C(=O)Nc2ccc(F)c(Cl)c2)cc1OC	13%
COc1cccc(NC(=O)CSc2ccc(Br)cc2)c1	12µg/mL*
COC(=O)c1ccc(NC(=O)C2CCN(C(=O)c3ccccc3)CC2)cc1	i
COc1cccc(C(=O)O/N=C(\N)c2ccc(C)cc2)c1	i
CCOC(=O)C1=C(C)NC2=C(C(=O)C(C(=O)OCC)C(c3ccco3)C2)C1c1ccsc1 (stereo not drawn)	5%
CC(C)Oc1ccc(CNC(=O)c2ccco2)cc1	i
CCCOc1ccc(C=O)cc1OCC	i
CCOC(=O)c1c(C)n(C)c2ccc(OC(=O)c3ccc(N4C(=O)CCC4=O)cc3)cc12	i
CCOC(=O)C1CCN(C(=O)c2ccccc2SCC)CC1	i
CCN(CC)C(=O)c1sc(NC(=O)C2CCCO2)c(C(=O)OC(C)C)c1C (stereo not drawn)	i
FC(F)(F)c1c2c(nc3c(-c4ccc(Cl)cc4)cnn13)CCC2	i
CCOC(=O)NC(=O)CSc1nc2ccccc2[nH]1	i
COCCCNC(=S)Nc1ccc(OC(F)F)cc1C	i
O=C(Nc1ccc(N2CCN(Cc3ccccc3)CC2)cc1)c1cccc([N+](=O)[O-])c1	2%
C#CCOC(=O)CCCC(=O)NCc1ccccc1	i
CC1CCN(C(=O)c2ccc(-c3nn(C)c(=O)c4ccccc34)cc2)CC1	i
C=CCc1cccc2cc(C(=O)NCCC3=CCCCC3)c(=O)oc12	1%
COc1ccc(S(=O)(=O)Nc2cccnc2)cc1I	i
CCn1c(SCC(=O)Nc2ccc(F)cc2)nnc1C(CC(C)C)NC(=O)c1ccc(Cl)cc1Cl (stereo not drawn)	1%

Overlap with the part before: 4 entries, then new ones.
canonical_smiles	Mtb H37Rv
CC1CCN(C(=O)c2ccc(-c3nn(C)c(=O)c4ccccc34)cc2)CC1	i
C=CCc1cccc2cc(C(=O)NCCC3=CCCCC3)c(=O)oc12	1%
COc1ccc(S(=O)(=O)Nc2cccnc2)cc1I	i
CCn1c(SCC(=O)Nc2ccc(F)cc2)nnc1C(CC(C)C)NC(=O)c1ccc(Cl)cc1Cl (stereo not drawn)	1%
Cc1cc(C)nc(SCC(=O)Nc2ccc(S(=O)(=O)Nc3onc(C)c3C)cc2)n1	0%
CCOC(=O)c1nc2sc3c(c2c(=O)n1C(C)C(=O)OCC)CCCC3 (stereo not drawn)	25%
CN(CC(=O)Nc1cccc(F)c1)S(=O)(=O)c1ccc(F)cc1	i
COc1ccc(CCNC(=O)C2CCCN(S(=O)(=O)c3ccc(F)cc3)C2)cc1OC (stereo not drawn)	i
COCC(=O)Nc1nc2c(s1)CCCC2	i
Cc1cc(NC(=O)C(C)Oc2ccc(Cl)cc2Cl)c(C)cc1I (stereo not drawn)	6%
COc1cc(C(=O)Nc2ccc(C(C)=O)cc2)ccc1OCc1ccc(Cl)cc1	i
O=C1CCCC2=C1C(c1ccc(-c3ccccc3)cc1)C1=C(N2)c2ccccc2C1=O (stereo not drawn)	47%
Nc1cc(=O)[nH]c(SCC(=O)Nc2ccc(Br)cc2)n1	i
COC(=O)COc1ccc(C)cc1C(C)(C)C	i
CN1CCN(C(=O)c2cc(Cl)cc(Cl)c2NC(=O)c2ccc(Cl)cc2Cl)CC1	i
CC1CN(S(=O)(=O)c2ccc(NC(=O)C(C)Oc3ccc(F)cc3)cc2)CC(C)O1 (stereo not drawn)	i
CCC(C)NS(=O)(=O)c1ccc(NC(=O)CSc2ccccc2)cc1 (stereo not drawn)	i
O=C(CN(c1cccc([N+](=O)[O-])c1)S(=O)(=O)c1ccccc1)Nc1ccc(F)cc1F	i
COc1cccc(OC)c1C(=O)Nc1ccc(Cl)cc1F	i
Cc1ccc(NS(=O)(=O)c2cc(N(C)S(=O)(=O)c3ccccc3)c(C)cc2C)c(C)c1	i
